KAT2A inh: GCN5L2 (KAT2A) acetyltransferase inhibition | Q92830 | GCN5L2 HAT assay, ThioGlo1 CoA-SH fluorescence | Potency, µM (doses to about 58.9 µM), for the others: at the top dose activity change, negative = inhibition, hits mostly inhibitors | 390,000 tested, 0.21% active
Target sequence (Q92830 whole entry, looked up): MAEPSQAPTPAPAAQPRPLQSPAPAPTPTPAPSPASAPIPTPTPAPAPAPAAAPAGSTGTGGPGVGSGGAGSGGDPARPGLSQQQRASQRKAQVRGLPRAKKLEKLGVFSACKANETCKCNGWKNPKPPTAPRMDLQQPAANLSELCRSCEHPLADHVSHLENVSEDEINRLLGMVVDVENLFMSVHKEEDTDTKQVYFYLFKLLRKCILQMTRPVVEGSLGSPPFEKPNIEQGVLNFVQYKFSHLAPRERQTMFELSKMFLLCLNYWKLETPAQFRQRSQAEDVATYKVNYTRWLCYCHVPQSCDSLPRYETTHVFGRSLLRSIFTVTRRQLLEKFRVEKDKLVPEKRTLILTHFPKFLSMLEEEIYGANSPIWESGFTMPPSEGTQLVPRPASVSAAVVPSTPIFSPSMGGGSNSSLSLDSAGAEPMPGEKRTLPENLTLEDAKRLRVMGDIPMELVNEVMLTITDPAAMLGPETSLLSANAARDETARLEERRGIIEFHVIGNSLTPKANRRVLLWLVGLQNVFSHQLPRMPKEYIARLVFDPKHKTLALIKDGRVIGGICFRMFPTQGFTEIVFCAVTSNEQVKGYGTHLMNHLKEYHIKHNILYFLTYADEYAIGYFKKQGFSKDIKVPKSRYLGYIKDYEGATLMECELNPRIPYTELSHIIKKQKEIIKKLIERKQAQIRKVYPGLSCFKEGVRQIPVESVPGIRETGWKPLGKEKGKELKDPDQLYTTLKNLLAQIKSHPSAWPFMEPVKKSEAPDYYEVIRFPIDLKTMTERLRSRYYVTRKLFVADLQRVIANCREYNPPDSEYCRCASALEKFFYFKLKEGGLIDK
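GCN5L2 (20 nM) in 50mM HEPES pH 7.5, 0.1mM EDTA, 0.01% Tween-20 preincubated 15 min with compounds at room temperature. Reaction started with H3(1-25) 75uM, acetyl-CoA 70uM, ThioGlo1 50uM; CoA-thiol fluorescence (Ex340/Em540) read at 0 and 20 min.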
N370S GC: inhibits or activates N370S mutant glucocerebrosidase. N370S GC spleen homogenate, 4MU-glucoside fluorescence. Potency, µM (top dose mostly 59.4 µM), inactives show at the highest dose activity change, negative = inhibition, usual class: inhibitors. 330,000 tested, 0.092% active;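 further: 0% = full enzyme activity and -100% = no enzyme basal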
An asterisk follows results filed as active; u = inconclusive; x = not tested or not shown; [ ] = another dose, or the depositor's remark. The call rests on the fitted dose curve; in most records, active means well fitted curve in the direction sought with a large enough effect; inconclusive means small, poorly fitted or top-dose-only effect, or another doubt; inactive means no such curve, though single readings can be large; an effect the other way counts as inactive or inconclusive. Unless noted, on the % scale 0 is the no-effect control and ±100 the full control effect; potency means the concentration at half of the fitted maximal effect. Some of the compounds tested; most or all hits stand in other tables.

SMILES	KAT2A inh	N370S GC
CC(C)c1ccccc1NC(=O)CN1C(=O)c2cccc3cccc1c23	-15%	x
CC(=O)c1cc2c(cc1NC(=O)Nc1cccc(Cl)c1)OCCO2	0%	17%
c1ccc2sc(N3CCN(Cc4nnnn4CC4CCCO4)CC3)nc2c1 (stereo not given)	1%	-23%
Cc1noc(C)c1COC(=O)c1cccc(S(=O)(=O)N2CCCCCC2)c1	-3%	-2%
COCCNc1nc(SCC(=O)N2CCN(c3ccccc3)CC2)nc2ccccc12	-10%	u
O=C1/C(=C/c2cccc(Cl)c2)SC(=S)N1CCC(=O)N1CCCCC1CCO (stereo not given)	0%	5%
CCN(CC(=O)Nc1ccccc1C(F)(F)F)C(=O)c1cc(S(=O)(=O)N(C)C)ccc1N1CCCC1	u	-4%
CCOC(=O)N1CCN(C(=O)c2c(-c3ccccc3Cl)noc2C)CC1	-1%	-4%
O=c1cc2ncc(-n3cc([N+](=O)[O-])cn3)cn2[nH]1	-14%	-12%
CCOn1c(=O)c(-c2cccs2)[n+]([O-])c2ccccc21	2%	15%
Cc1cc(Nc2ccccc2)c2c([N+](=O)[O-])cc(C)c(C)c2n1	-8%	-5%
CCn1c(Cc2c(C)[nH]c3ccccc23)n[nH]c1=S	3%	1%
N=c1ccn(Cc2c(Cl)cccc2Cl)cc1	-3%	1%
CCOc1cc(CNCCO)cc(Br)c1OCc1ccccc1Cl	49%[activator]	u
COc1ccc(CC(=O)OC(C)C(=O)Nc2c(C)n(C)n(-c3ccccc3)c2=O)cc1OC (stereo not given)	0%	x
O=S1(=O)CCOCCCN1Cc1ccccc1F	-5%	-3%
CCOc1ncccc1C(=O)N(CC)CC(=O)Nc1ccc(NC(C)=O)cc1	4%	7%
Cc1ccc(NS(=O)(=O)c2ccc3c(c2)N(C)CCO3)cc1	-4%	-9%
CC(C)(C)c1ccc(OCC(=O)N(Cc2cccs2)C2CCS(=O)(=O)C2)cc1 (stereo not given)	u	-10%
COc1ccc(/C=N/NC(=O)c2ccc(Cl)c(S(N)(=O)=O)c2)cc1OCC(N)=O	-5%	-14%
CCCCN(C(=O)COC(=O)c1ccc(C=O)cc1)c1c(N)n(CCC)c(=O)[nH]c1=O	-1%	x
Cc1ccccc1NC(=O)NC1(C(=O)NCCCN2CCOCC2)CCCCC1	-2%	-7%
COc1ccc(CCN2CN(S(=O)(=O)c3ccccc3)c3nc4ccccc4nc32)cc1OC	-10%	6%
O=C(COCc1nc2ccccc2c(=O)[nH]1)NC1CCCC1	2%	-1%
CCOC(=O)C1CCCN(C(=O)c2ccccc2NS(=O)(=O)c2ccc(F)cc2)C1 (stereo not given)	-6%	x

New compounds follow.
SMILES	KAT2A inh	N370S GC
COc1ccc(NS(=O)(=O)c2cc(C)ccc2OC)cc1OC	-7%	1%
Cc1ccc(S(=O)(=O)NCc2csc(-c3cccs3)n2)cc1	1%	9%
Cc1c(NC(=O)c2coc(=O)c(Br)c2)c(=O)n(-c2ccccc2)n1C	x	8%
Cc1nn(C)c(C)c1S(=O)(=O)N(CC(=O)N1CCc2ccccc21)c1ccc(C(C)C)cc1	1%	0%
COc1cc(/C=C/C(=O)OCC(=O)N2CCCCCC2)ccc1OCC#N	-6%	-12%
O=S1(=O)CC(N2CCCCC2)C(N2CCCCC2)C1 (stereo not given)	2%	30%
CCC(CC)C(=O)N(CCc1ccc(OC)cc1)Cc1nc2ccccc2c(=O)[nH]1	-5%[0.501 µM]	-11%
CC(Nc1[nH]c(=O)n(C)c(=O)c1N=O)c1ccccc1 (stereo not given)	1%	4%
COC(=O)C(Cc1ccc(O)cc1)NC(=O)C(C)NC(=O)c1ccc(C(C)(C)C)cc1 (stereo not given)	0%	4%
Cc1cc2ncc(S(C)(=O)=O)c(N)n2n1	-7%	0%
COCCn1c(SCC(=O)Nc2ccc(Cl)cn2)nc2ccccc21	-16%	u
COc1cc(C)ccc1OCCSc1nnc(-c2cccs2)o1	-12%	x
CCOc1ccccc1C(=O)NCC(=O)N1CCN(Cc2ccc3c(c2)OCO3)CC1	-1%	x
OC(CNCc1ccccn1)c1ccccc1 (stereo not given)	12%	4%
CCOCCCNC(=O)C1CCC(CNS(=O)(=O)c2cccc3nsnc23)CC1 (stereo not given)	-2%	4%
CCN1CCN(S(=O)(=O)c2ccc3c(c2)OCCO3)CC1	-7%	-16%
CCCc1ccc(S(=O)(=O)NCc2nnc(SC)n2C)cc1	-3%	-3%
COc1ccc(NS(=O)(=O)c2cn(C)nc2C)cc1	-1%	6%
COc1ccc(OCc2cc(C(=O)N(C)C3CCOCC3)no2)c2ccccc12	-5%	1%
Cc1ccccc1N=C1NC(=O)/C(=C/c2cccn2C)S1	0%	-3%
CCOC(=O)N1CCN(Cc2nc(N)nc(Nc3ccc(C)cc3)n2)CC1	-5%	-2%
O=C(NCc1ccccn1)c1coc(=O)c(Br)c1	-25%	9%
O=C1c2ccccc2C(=O)N1/N=C/c1ccc(O)c(O)c1	-4%	-16%
CCN1C(=O)[C@H]2[C@H]3CN=C(SCc4ccccc4)N3[C@@](C)(C(=O)OC)[C@H]2C1=O	-6%	x
CS(=O)(=O)Nc1ccccc1C(=O)NCCSc1ccc(Cl)cc1	-13%	-4%

Single records, as listed above. Order of values: KAT2A inh	N370S GC
Results for Cc1ccccc1N=C1NC(=O)/C(=C/c2cccn2C)S1 → 0%	-3%
Results for Cc1cc2ncc(S(C)(=O)=O)c(N)n2n1 → -7%	0%
Results for COCCn1c(SCC(=O)Nc2ccc(Cl)cn2)nc2ccccc21 → -16%	u
Results for COC(=O)C(Cc1ccc(O)cc1)NC(=O)C(C)NC(=O)c1ccc(C(C)(C)C)cc1 (stereo not given) → 0%	4%

Remaining list, next part:
SMILES	KAT2A inh	N370S GC
O=c1cc(CSc2nnc(COc3ccc(Cl)cc3)o2)c2ccccc2[nH]1	-26%	11%
CCN(C(=O)Cn1nnc(-c2ccccc2)n1)C1CCS(=O)(=O)C1 (stereo not given)	-27%	-3%
CCN1C(=O)c2cccc3c(S(=O)(=O)N(C(=O)c4ccncc4)c4ccc(OC)cc4)ccc1c23	u	24%
CC(=O)c1ccc(N2CCN(C(=O)c3n[nH]c4ccccc34)CC2)cc1	-1%	-9%
COc1ccc(NC(=S)N2CCCC2)c(OC)c1	-1%	6%
COc1cc(OC)cc(C(=O)NC(=S)NNC(=O)c2cnccn2)c1	1%	-4%
CC(=O)N1CCc2c(sc(NC(=O)c3ccc([N+](=O)[O-])o3)c2C#N)C1	0%	-17%
CCOC(=O)N1CCN(C(=O)c2cc3c(ccc4ccccc43)oc2=O)CC1	-3%	5%
COc1ccc2cc(-c3[nH]ncc3CN3CCCC3c3nonc3C)ccc2c1 (stereo not given)	-9%	-15%
CSc1ccc(CCNC(=O)CCCn2nc(C)c3sc4ccccc4c3c2=O)cc1	-12%	x
CCN(C(=O)c1cc2cccc(OC)c2oc1=O)C1CCCCC1	-3%	1%
COc1ccccc1OCC(=O)NCCSCc1ccc(Cl)cc1	-3%	u
Cc1ccc(NC(=O)C2CCCN(S(=O)(=O)c3ccc(-n4cnnn4)cc3)C2)cc1 (stereo not given)	-5%	-6%
Nc1nnnn1/N=C/c1ccco1	0%	1%
Cc1ccc(NC(=O)CSc2nnc(CCCCCNC(=O)OC(C)(C)C)o2)c(C)c1	-2%	6%
O=C(Cn1c(=O)ccc2cc(S(=O)(=O)N3CCCC3)ccc21)NCc1ccc(F)cc1	4%	x
Cc1ccc2c(C)c(C(=O)N(Cc3ccc(N(C)C)cc3)C3CCS(=O)(=O)C3)oc2c1 (stereo not given)	u	-8%
CCOc1ccc(S(=O)(=O)N(CC)CC(=O)NCc2ccccn2)cc1C	4%	3%
COc1ccc(OC)c(NC(=O)C2CC2c2ccccc2)c1 (stereo not given)	2%	-18%
COc1ccccc1CNC(=O)C(NC(=O)c1ccccc1C)C(C)C (stereo not given)	-4%	6%
Cc1ccc2c(CC(=O)N3CCN(S(=O)(=O)c4ccccc4)CC3)coc2c1	-7%	-17%
CCN(C(=O)COC(=O)c1ccc(N2C(=O)c3ccccc3C2=O)cc1)C1CCS(=O)(=O)C1 (stereo not given)	-3%	5%
Cc1ccc(S(=O)(=O)NCCC(=O)OCC(=O)N2CCCC2=O)cc1	0%	-9%
Cc1ccc(Nc2nn3c(=O)c4cc5c(cc4nc3s2)OCO5)cc1Cl	0%	x
COc1ccccc1C(=O)NCCC(=O)N(C)Cc1ccc(C)o1	-1%	4%

The last 4 compounds of the part before come first, to join the parts.
SMILES	KAT2A inh	N370S GC
CCN(C(=O)COC(=O)c1ccc(N2C(=O)c3ccccc3C2=O)cc1)C1CCS(=O)(=O)C1 (stereo not given)	-3%	5%
Cc1ccc(S(=O)(=O)NCCC(=O)OCC(=O)N2CCCC2=O)cc1	0%	-9%
Cc1ccc(Nc2nn3c(=O)c4cc5c(cc4nc3s2)OCO5)cc1Cl	0%	x
COc1ccccc1C(=O)NCCC(=O)N(C)Cc1ccc(C)o1	-1%	4%
CC1(C)CC(=O)C(C(C2=C(O)CC(C)(C)CC2=O)c2ccco2)C(=O)C1 (stereo not given)	-15%	-6%
O=C(CSc1nncn1-c1ccccc1)c1c[nH]c2ccccc12	-14%	-4%
CCC(CO)N=CC1=C(O)CC(c2ccccc2)CC1=O (stereo not given)	-8%	-7%
COc1cc(/C=C\C(=O)N2CCC=CC2=O)cc(OC)c1OC	-1%[21.4 µM]	7%[21.6 µM]
COc1ccccc1C(C)NC(=O)CCOc1cccc(C)c1 (stereo not given)	-4%	-19%
COC(=O)c1ccc(CN2C(=O)c3ccccc3C2=O)o1	-1%	9%
CC(=O)Nc1sc2c(c1C(c1ccccc1)N1CCOCC1)CCCC2 (stereo not given)	0%	-3%
Cc1cc(C)c(NC(=O)CS(=O)CC(=O)NC2CCCc3ccccc32)c(C)c1 (stereo not given)	-3%	2%
CCN(CC)CCOC(=O)c1cccc(Cl)c1	1%	-1%
CCN(c1cccc(C)c1)S(=O)(=O)c1ccc(-c2coc(C)n2)cc1	-7%	-3%
Cc1c(S(=O)(=O)N2CCN(c3cccc(Cl)c3)CC2)c(=O)n(C)c(=O)n1C	-8%	-12%
CCOC(=O)N1CCC(NC(=O)C2CCN(C(=O)N3CC(C)Oc4ccccc43)CC2)CC1 (stereo not given)	-4%	1%
COC(=O)c1c(C)[nH]c(C(=O)OCc2ccc(F)cc2)c1C	-2%	-5%
Cc1cccc2c1CC(C)(C)NC2=C(C#N)C#N	-3%	u
C#CC[N+](CC)(CC)CC#Cc1cccc(Cl)c1	0%	-7%
CCO[C@H]1OC(C(=O)Nc2ccccc2)=C[C@@H](C2CC2)[C@@H]1CCCO	-4%	-3%
CC1CCc2c(sc3ncnc(NCc4cccnc4)c23)C1 (stereo not given)	-4%	8%
Cc1ccc(-n2c(=O)c3ccccc3n(CC(=O)Nc3cccc(C(F)(F)F)c3)c2=O)cc1	-10%	x
Cc1cccc(S(=O)Cc2ccc(C(=O)N3CCN(C(=O)c4ccco4)CC3)o2)c1 (stereo not given)	-18%	-2%
CN(C)c1cccc(C(=O)Nc2nc3ccccc3[nH]2)c1	-8%	-13%
CC(=O)c1c(N2CCOCC2)nc(=S)n(-c2cc(C)ccc2C)c1C	u	-4%
CCN(CC)CCNC(=O)C(=O)NCC(c1ccc2c(c1)OCO2)N1CCOCC1 (stereo not given)	-3%	x
CC(OC(=O)C1=Cc2ccccc2OC1)C(=O)NCc1ccco1 (stereo not given)	-7%	-10%
O=C(NCCc1ccccc1)C(=O)NCC(c1ccc2c(c1)OCO2)N1CCOCC1 (stereo not given)	0%	x
CC1(c2nnc(Cc3ccccc3)o2)CC(c2cccc(F)c2)=NO1 (stereo not given)	-11%	1%

Fetched by compound from the list above (2):
SMILES	KAT2A inh	N370S GC
CCC(CO)N=CC1=C(O)CC(c2ccccc2)CC1=O (stereo not given)	-8%	-7%
CCN(CC)CCNC(=O)C(=O)NCC(c1ccc2c(c1)OCO2)N1CCOCC1 (stereo not given)	-3%	x

Next part
SMILES	KAT2A inh	N370S GC
O=C(NCCc1cccnc1)C1CCC(=O)N(Cc2cccc(C(F)(F)F)c2)C1 (stereo not given)	0%	3%
Cn1cnc([N+](=O)[O-])c1Sc1ccccc1	-7%	x
CCN(CC)S(=O)(=O)c1ccc2oc(C(=O)NC3CC3)c(C)c2c1	-5%	-3%
CC(=O)Nc1cccc(C(=O)OCN2C(=O)c3ccccc3C2=O)c1	u	-22%
CCC(=O)Nc1ccc(C(=O)CN2C(=O)NC3(CCCCCC3)C2=O)cc1	1%	x
Clc1ccc(SCCOCCN2CCCCC2)cc1	-3%	9%
O=C(CCCN1C(=O)c2ccccc2C1=O)Nc1cccc(S(=O)(=O)NC2=NCCC2)c1	-4%	2%
COc1ccc(Cl)cc1NS(=O)(=O)c1c(C)nc2sccn2c1=O	-12%	3%
CC(=O)c1ccc(NC(=O)CSc2nc3[nH]ncc3c(=O)[nH]2)cc1	-20%	0%
CNc1nc(SCC(=O)OC)nc(N2CCOCC2)n1	1%	0%
CC(C)c1nc2cc(C(=O)N(C)C3CCOCC3)ccc2o1	2%	-9%
COc1ccccc1N1CCN(C2CC(=O)N(c3cccc(Cl)c3)C2=O)CC1 (stereo not given)	-3%	-5%

Molecules shown so far containing a tert-butyl group, in the order listed:
SMILES	KAT2A inh	N370S GC
CC(C)(C)c1ccc(OCC(=O)N(Cc2cccs2)C2CCS(=O)(=O)C2)cc1 (stereo not given)	u	-10%
COC(=O)C(Cc1ccc(O)cc1)NC(=O)C(C)NC(=O)c1ccc(C(C)(C)C)cc1 (stereo not given)	0%	4%
Cc1ccc(NC(=O)CSc2nnc(CCCCCNC(=O)OC(C)(C)C)o2)c(C)c1	-2%	6%

From PubChem
